# Hsc70: Hsc70 inhibitors, probe displacement, primary screen, biochemical, fluorescence polarization (AID 568); 83,000 tested, under 10 active; displacement, % at 20 µM, or IC50 in µM where a hit was titrated; Hsc70 fluorescence polarization, probe displacement; higher % means a stronger effect; strong numbers were not always called active;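 active = displacement above 50% without optical interference and an IC50 on retest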;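 also: ATPase domain with a fluorescein-tagged ATP probe; 0% = vehicle and 100% = excess ADP; read after one hour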
# WNV NS2B-NS3 inh: blocks West Nile virus NS2B-NS3 protease activity; P06935; WNV NS2B-NS3 protease, fluorogenic substrate Ex360/Em465; hits give low values; z-score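 (tested at a level between 10 and 100 µM)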; AID 577; 65,000 compounds, 0.18% hits;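 active = z-score at -3 or under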;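 also: score is relative to mean and spread of the compound wells of a plate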
# Target sequence (P06935 1371-1501 limits assumed): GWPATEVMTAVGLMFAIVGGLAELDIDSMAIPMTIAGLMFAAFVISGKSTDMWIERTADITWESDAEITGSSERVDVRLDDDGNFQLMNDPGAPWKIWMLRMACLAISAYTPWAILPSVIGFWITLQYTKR
# Target sequence (P06935 1502-1679 limits assumed): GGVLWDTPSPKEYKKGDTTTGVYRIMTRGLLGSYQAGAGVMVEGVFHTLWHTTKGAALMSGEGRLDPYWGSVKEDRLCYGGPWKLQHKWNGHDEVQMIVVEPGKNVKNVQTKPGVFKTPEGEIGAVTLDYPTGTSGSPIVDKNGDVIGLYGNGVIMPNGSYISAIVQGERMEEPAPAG
# MT1-MMP promoter: inhibitors of MT1-MMP promoter transcription, cell-based, luciferase reporter, luminescence (AID 618); calls from a first round at 10 µM; hits with a dose series show EC50 in µM; MT1-MMP promoter luciferase reporter cells, luminescence; 87,000 compounds, 0.62% hits;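 active = over half of the reporter light lost at 10 µM or EC50 under 50 µM; inactive = the rest and hits that failed the dose series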;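 also: actives suppress MT1-MMP promoter-driven transcription so potencies describe inhibitors; HT1080 fibrosarcoma cells; overnight exposure; toxic or luciferase-blocking compounds were not removed from the actives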
# * marks the source's active call; other numbers are inactive results; i = inactive; . = no result given. This is a subset, so the mix of outcomes need not match the whole.
Structure	Hsc70	WNV NS2B-NS3 inh	MT1-MMP promoter
CCOc1ccc(OCC)c(NC(=O)CN2CCN(c3cccc(C)c3C)CC2)c1	0.0%	-0.61	i
CC(C)(C)c1cc(NC(=O)CCSc2nnc3ccccn23)cc(C(C)(C)C)c1	6.2%	.	i
COC(=O)C(C(=O)NCC1CCCO1)C1CCCCCC1 (stereo not given)	8.2%	-0.19	i
Cc1ccc2cc(CN(Cc3cccs3)C(=O)c3ccco3)c3nnnn3c2c1C	-4.7%	-0.62	i
CCOC(=O)C1(C(=O)O)NC(=O)CC1c1ccccc1 (stereo not given)	-4.0%	.	i
O=C(Cc1cn2ccsc2n1)OCc1nc2ccccc2s1	-5.0%	2.1	i
CC1CCCC(C)N1C(=O)CSCc1ccc(Cl)cc1 (stereo not given)	-1.7%	.	i
N=c1c2c(-c3ccccc3)c(-c3ccccc3)oc2ncn1CCCN1CCOCC1	-2.6%	-0.25	i
CN(C)c1nc(-c2ccccc2)c2cnn(Cc3ccccc3)c2n1	-7.4%	-0.14	i
COc1cccc(-c2nnc(SCC(=O)N3CC(C)CC(C)C3)o2)c1 (stereo not given)	6.9%	0.06	i
CCCOC(=O)c1c(N)sc2c1CCC2	-1.8%	0.3	i
Cc1cc(C(=O)OCC(=O)NC(C)(C)C)c2ccccc2n1	1.5%	.	i
Cc1ccccc1-c1nnc(SCc2ccccc2F)o1	-1.5%	-0.3	i
Fc1ccc(C2=Nn3c(Cc4ccccc4F)nnc3SC2)cc1	-2.2%	.	i
COc1cc(Cl)ccc1NC(=O)COc1ccccc1C(=O)N1CCN(c2ccc(O)cc2)CC1	-1.9%	-0.05	i
O=S(=O)(Cc1ccccc1)N1CCC(c2nc(-c3cccs3)no2)CC1	1.3%	-0.69	i
Cc1cccc(C)c1NC(=O)N1C2CCCC1CC(NC(=O)C(C)(C)C)C2 (stereo not given)	-0.7%	-0.28	i
Cc1ccccc1SCC(=O)Nc1cccc(C#N)c1	-0.7%	.	i
S=c1nc(-c2ccccc2)n(Cc2ccco2)c2c1CCCC2	2.6%	-1.2	i
CC(C)CCn1c(CN(C)Cc2ccccc2)nc2c1c(=O)n(C)c(=O)n2C	-4.1%	0.18	i
Cc1cc(N2CCC(C(=O)NC3CCCCC3)CC2)nc(-c2ccccc2)n1	-2.0%	-4.8*	i
NS(=O)(=O)c1ccc(CCNC(=O)C2CCCN2C(=O)OCc2ccccc2)cc1 (stereo not given)	3.6%	1.7	i
CCn1c(N2CCN(CC(=O)c3ccc(OC)cc3)CC2)nc2ccccc21	1.6%	-0.67	i
O=c1c(-c2ccc(F)cc2)coc2c3c(ccc12)OCCO3	2.1%	1.2	i
O=c1c2c3c(sc2ncn1/N=C/c1ccccc1)CCCC3	1.3%	.	i
COc1ccc(C)cc1-n1nnnc1SCn1nnc2ccccc2c1=O	3.9%	1.1	i
COc1ccc2cc(CN(CCc3ccccc3)Cc3nnnn3CC3CCCO3)c(=O)[nH]c2c1 (stereo not given)	5.0%	0.47	i
COC(=O)C(NC(C)=O)(Nc1ccccc1)C(=O)OC	2.0%	-0.4	i
Cc1cccc(C)c1OCC(=O)Nc1oc(-c2ccccc2)c(-c2ccccc2)c1C#N	1.7%	.	i
CCOP(=O)(OCC)C(C#N)=C1SCN(c2ccc(Cl)cc2)CS1	-2.4%	.	i
Cc1ccccc1S(=O)(=O)Cc1ccc(C(=O)NCCCOC(C)C)o1	-9.5%	-5.6*	i
COc1ccccc1NC(=O)c1cc2ccc(O)cc2o/c1=N\O	-7.5%	-0.22	i
CC(=O)c1c(N2CCOCC2)nc(=S)n(-c2cc(C)ccc2C)c1C	8.5%	-0.66	i
C=CCN(CC=C)C(=O)Nc1cc(Cl)ccc1OC	-2.3%	-1.2	i
O=C(NC1CCCCC1)C(c1ccco1)N(Cc1cccnc1)C(=O)C1COc2ccccc2O1 (stereo not given)	1.7%	0.01	i
COc1cc2c(cc1NC(=O)COC(=O)Cn1cnc3ccccc31)oc1ccccc12	1.7%	-1.1	i

# Entries of single compounds from above.
# O=c1c2c3c(sc2ncn1/N=C/c1ccccc1)CCCC3 across the screens: Hsc70: 1.3%; WNV NS2B-NS3 inh: .; MT1-MMP promoter: i
# O=S(=O)(Cc1ccccc1)N1CCC(c2nc(-c3cccs3)no2)CC1 across the screens: Hsc70: 1.3%; WNV NS2B-NS3 inh: -0.69; MT1-MMP promoter: i

# New compounds follow:
Structure	Hsc70	WNV NS2B-NS3 inh	MT1-MMP promoter
O=C(O)C1C2C=CC(C2)C1C(=O)NCCc1ccccc1 (stereo not given)	-11%	-0.54	i
O=C(CSc1nnc(-c2cccs2)n1-c1cccc(Cl)c1)c1cccc2c1OCCO2	3.6%	.	i
Cc1c(=O)n(OCc2ccccc2)c2ccccc2[n+]1[O-]	-12%	1.7	i
COc1ccc(-c2nnc(SCC(=O)Nc3ccc(Cl)cc3)n2C)cc1	6.2%	0.56	i
CCCCc1c(C)c(C#N)c2[nH]c3ccccc3n2c1=O	-1.4%	.	i
Cc1ccc(NS(=O)(=O)c2ccccc2Cl)c2c1CC(C)(C)O2	0.8%	.	i
COC(=O)c1c(NC(=O)c2ccc(S(=O)(=O)N3CCOCC3)cc2)sc2c1CCN(C)C2	-3.1%	-0.7	i
O=C(c1cc2sccc2n1Cc1ccc(F)cc1)N1CCN(c2nc3ccccc3s2)CC1	6.2%	.	i
CCOC(=O)C1=C(C)NC(=O)C(C#N)C1c1ccncc1 (stereo not given)	-1.9%	1.8	i
COCCNC(=O)Cn1nc(C(F)(F)F)c(Cl)c1C	-0.7%	0.45	i
CCCS(=O)(=O)N1CCCC(C(=O)NCc2ccc3c(c2)OCO3)C1 (stereo not given)	-7.6%	-1.1	i
C=CCC(NCc1ccccc1)c1ccco1 (stereo not given)	-4.6%	-0.12	i

# Next section:
# Every second line gives: Hsc70, WNV NS2B-NS3 inh, MT1-MMP promoter
> CCOC(=O)N1CCC(Nc2ncnc3c2cnn3-c2ccc(C)cc2C)CC1
 : 6.2%, 0.27, i
> Cn1c(NC(=O)c2ccc(Cl)s2)cc(=O)n(C)c1=O
 : 1.7%, ., i
> CCC(=O)NC(c1cccc([N+](=O)[O-])c1)c1c(OC(C)=O)ccc2ccccc12 (stereo not given)
 : -3.7%, ., i
> CCOC(=O)CC1(CC(=O)OCC)NC(=O)c2c(C)sc(C(=O)OCC)c2N1
 : 4.2%, 1.1, i
> Cn1nc(-c2ccc(OCC(N)=O)cc2)c2ccccc2c1=O
 : -4.0%, ., i
> Cc1c(-c2ccccc2)sc(N)c1C(=O)N1CCOCC1
 : -3.7%, 1.1, i
> COC(=O)CN(n1cnnc1)S(=O)(=O)c1ccccc1
 : 2.5%, -0.47, i
> COC(=O)c1ccccc1NC(=O)C1CC(=O)N(C2CCCCC2)C1 (stereo not given)
 : -1.2%, -1.2, i
> O=C1CC(c2ccncc2)c2cc3c(cc2N1)OCCO3 (stereo not given)
 : 4.3%, 0.09, i
> Cc1ccccc1C(=O)Nc1cccc(C#N)c1
 : 1.2%, ., i
> Cc1cc(NC(=O)CN2CC(C)OC(C)C2)n(-c2nc3ccccc3s2)n1 (stereo not given)
 : 0.7%, ., i
> Cc1ccccc1NC(=O)C1CCN(c2cnccn2)CC1
 : -4.9%, 0.33, i
> O=C1C(=O)N(CCO)C(c2ccccc2)/C1=C(\O)c1ccccc1 (stereo not given)
 : 2.8%, 0.23, i
> CCc1c(O)nc(SCC(=O)Nc2ccc(C)cc2)n(C2CCCCC2)c1=O
 : -20%, -0.62, i
> CC(C)(C)NS(=O)(=O)c1ccc(CCC(=O)N2CCCCC2)cc1
 : -3.1%, -2.1, i
> CN(CCNC(=O)c1ccc(/C=N/O)nc1)Cc1ccccc1
 : -9.3%, -0.36, i
> C=C(C)Cn1c(=O)c2c(nc3n2CCN3c2cccc(Cl)c2C)n(C)c1=O
 : -7.7%, -0.16, i
> O=C(CSc1nc2ccccc2o1)NC(=O)NCc1ccccc1
 : -0.2%, ., i
> Cc1cccc(NCC(O)Cn2cnc3c2c(=O)n(C)c(=O)n3C)c1 (stereo not given)
 : -1.8%, 1, i
> O=C(CSCc1ccccc1)N1CCN(Cc2ccc3c(c2)OCO3)CC1
 : 1.3%, 0.45, i
> COCc1cc(C)nc(Nc2cc(C)ccc2C)c1C#N
 : -0.4%, -0.47, i
> Cc1cc(C)c(NC(=O)CS(=O)CC(=O)NC2CCCc3ccccc32)c(C)c1 (stereo not given)
 : 4.6%, ., i
> Cc1cc(N)c(-n2cc3c(=O)n(C)c(=O)n(C)c3c2)cc1C
 : 5.9%, -0.95, i
> COc1ccc(Cn2nnnc2C(C(C)C)N2CCN(c3ccccc3OC)CC2)cc1 (stereo not given)
 : 0.7%, -0.64, i
> C#C[C@]1(O)CC[C@H]2[C@@H]3CCc4cc(OC)ccc4[C@H]3CC[C@@]21C
 : -2.8%, -1.3, i
> CC(=O)Nc1sc2c(c1C(c1ccccc1)N1CCOCC1)CCCC2 (stereo not given)
 : 3.4%, ., i
> CCOC(=O)c1cnc(N2CCOCC2)[nH]c1=O
 : -1.2%, -1.2, i
> O=C1CC(Nc2ccccc2)C(=O)N1Cc1ccccc1 (stereo not given)
 : -1.5%, ., i
> O=C(CCSc1nnc(-c2ccncc2)o1)Nc1ccccc1
 : -0.9%, 0.24, i
> CC1(C)OC(c2ccccc2)=C/C(=C/C=Nc2ccccc2)O1
 : -2.7%, ., i
> Cc1ccc(S(=O)(=O)c2c(C)nn(C(C)(C)C)c2OC(=O)c2ccco2)cc1
 : -2.8%, -0.58, i
> COc1cc(C(c2sc3nc(C)nn3c2O)N2CCc3ccccc3C2)cc(OC)c1OC (stereo not given)
 : -3.1%, -0.6, i
> Cc1ccc2nc(SCC(=O)N3CCOCC3)[nH]c2c1
 : -2.7%, ., i
> Fc1c(F)c(C(F)(F)F)c(F)c(F)c1N/N=C\c1cccs1
 : 1.7%, ., i
> CN(CC(=O)NCc1ccncc1)S(=O)(=O)c1ccccc1
 : 1.6%, ., i
> COc1ccc(-c2nsc(SCC(=O)Nc3cc(C)on3)n2)cc1
 : -6.5%, 0.19, i
> COc1ccc2ccccc2c1CN1CCCC(CO)C1 (stereo not given)
 : 2.3%, 0.25, i
> Cc1ccccc1C(=O)NCc1nnc(SCC(=O)N2CCN(c3ccccc3)CC2)n1C
 : 5.4%, ., i
> Brc1c(CSc2nncn2-c2ccccc2)nc2ncccn12
 : -3.1%, 0.53, i
> CCN(CC)CCOC(=O)c1cccc(Cl)c1
 : -2.0%, 0.32, i

# Results in MT1-MMP promoter (five entries from above):
Compound	MT1-MMP promoter
C=C(C)Cn1c(=O)c2c(nc3n2CCN3c2cccc(Cl)c2C)n(C)c1=O	i
O=C(CSc1nc2ccccc2o1)NC(=O)NCc1ccccc1	i
Cc1cccc(NCC(O)Cn2cnc3c2c(=O)n(C)c(=O)n3C)c1 (stereo not given)	i
O=C(CSCc1ccccc1)N1CCN(Cc2ccc3c(c2)OCO3)CC1	i
COCc1cc(C)nc(Nc2cc(C)ccc2C)c1C#N	i

# Next entries
# Every second line gives: Hsc70, WNV NS2B-NS3 inh, MT1-MMP promoter
> O=C(COC(=O)c1ccc(Br)c(S(=O)(=O)N2CCOCC2)c1)NCC1CCCO1 (stereo not given)
 : 3.9%, -0.85, i
> Cc1cc(C(=O)CSc2nc(N)cc(=O)[nH]2)c(C)n1CCc1ccc(F)cc1
 : 1.1%, ., i
> Cc1nnc(NC2=NCCC2)o1
 : -0.6%, -0.51, i
> CCCc1nnc(SCC(=O)Nc2ccc(OCC)cc2)n1N
 : -1.2%, -0.14, i
> COc1ncnc2c1cnn2-c1ccccc1
 : -0.3%, ., i
> COc1cccc(-c2ccc(=O)n(CC(=O)NCCN3CCOCC3)n2)c1
 : -2.2%, 0.02, i
> CCOC(=O)C1CCN(CC(=O)Nc2c(C(=O)OC)[nH]c3ccc(Cl)cc23)CC1
 : -1.9%, 0.6, i
> COc1cccc(/C=N/NC(=O)CC2C(=O)NN=C2C)c1O (stereo not given)
 : 2.6%, ., i
> Cc1c(C(=O)N2CCN(C)CC2)oc2ccc(S(=O)(=O)N3CCOCC3)cc12
 : 5.1%, -0.29, i
> CC(=O)N1C(C(=O)O)CSC1c1ccc(C)cc1 (stereo not given)
 : -2.2%, 2.1, i
> Cc1cc(C(c2ccc(C)o2)c2ccc(C)o2)c(O)c([N+](=O)[O-])c1
 : 0.6%, ., i
> COc1ccccc1N=C(C)C1=C(O)CSC1=O
 : 0.2%, -0.44, i
> COC(=O)c1c(C)[nH]c(C(=O)OCc2ccc(F)cc2)c1C
 : 5.2%, -1.1, i
> COc1ccc(N(CC(O)Cn2nnc3ccccc32)S(=O)(=O)c2ccc(C)cc2)cc1 (stereo not given)
 : -2.9%, 0.85, i
> COc1cccc(N2CCN(CC(=O)Nc3nnc(-c4ccccc4)s3)CC2)c1
 : -0.9%, -1.2, i
> COc1cccc(CC(NC(C)=O)C(=O)NC2CCN(c3nnnn3-c3ccccc3)CC2)c1 (stereo not given)
 : 1.6%, ., i
> COc1ccc2nc(SCC(=O)N3CCN(c4ccccc4F)CC3)c(C#N)cc2c1
 : 1.1%, ., i
> COc1cccc(-c2nnc3sc(-c4ccco4)nn23)c1
 : -2.4%, 0.98, i
> CCCc1cc(=O)[nH]c(SCC(=O)NC(=O)c2ccccc2)n1
 : 9.9%, 0.15, i
> Cc1cc2nsnc2c(S(=O)(=O)NCC(=O)O)c1C
 : -2.4%, -0.8, i
> CCOc1ccccc1-n1nnnc1SCC(=O)Nc1cc(C)on1
 : -0.7%, 1.8, i
